Screens from PubChem BioAssay.
Hsc70 ATP site – Hsc70 inhibitors, probe displacement, primary screen, biochemical, fluorescence polarization (AID 568). 83,000 tested, under 10 active. Heat shock cognate 71 kDa protein (Homo sapiens). displacement, % at 20 µM, or IC50 in µM where a hit was titrated. Hsc70 fluorescence polarization, probe displacement; higher % means a stronger effect; strong numbers were not always called active;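 active means displacement above 50% without optical interference and an IC50 on retest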;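 further: ATPase domain with a fluorescein-tagged ATP probe; 0% = vehicle and 100% = excess ADP; read after one hour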
MT1-MMP promoter – inhibitors of MT1-MMP promoter transcription, cell-based, luciferase reporter, luminescence (AID 618); MT1-MMP promoter luciferase reporter cells, luminescence; 0.62% of 87,000 active; calls from a first round at 10 µM; hits with a dose series show EC50 in µM;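 active means over half of the reporter light lost at 10 µM or EC50 under 50 µM; inactive means the rest and hits that failed the dose series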;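 further: actives suppress MT1-MMP promoter-driven transcription so potencies describe inhibitors; HT1080 fibrosarcoma cells; overnight exposure; toxic or luciferase-blocking compounds were not removed from the actives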
WNV NS2B-NS3 inh – inhibitors of WNV NS2B-NS3 protease, primary screen, biochemical, fluorogenic substrate; Genome polyprotein (West Nile virus), P06935; fluorogenic substrate Ex360/Em465; stronger effect = lower value; z-score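 (tested at a level between 10 and 100 µM)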; 0.18% of 65,000 active; AID 577, 2007;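 active means z-score at -3 or under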;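 further: score is relative to mean and spread of the compound wells of a plate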
Target sequence (P06935 1371-1501 limits assumed): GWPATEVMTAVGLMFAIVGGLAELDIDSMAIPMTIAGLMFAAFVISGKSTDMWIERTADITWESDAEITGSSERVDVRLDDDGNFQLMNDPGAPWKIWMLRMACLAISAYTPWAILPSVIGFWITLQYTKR
Target sequence (P06935 1502-1679 limits assumed): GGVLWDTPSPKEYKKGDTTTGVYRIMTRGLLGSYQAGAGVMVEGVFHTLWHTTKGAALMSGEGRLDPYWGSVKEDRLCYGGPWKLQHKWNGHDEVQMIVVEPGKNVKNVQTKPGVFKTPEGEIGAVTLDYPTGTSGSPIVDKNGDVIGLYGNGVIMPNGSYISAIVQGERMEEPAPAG
* marks the source's active call; other numbers are inactive results; i = inactive; / = not tested or not shown. This is a random part of the collection. About 0.87% of those tested had a hit in this group.

Values run as follows: MT1-MMP promoter	WNV NS2B-NS3 inh	Hsc70 ATP site
- COCCn1cc(C(=O)NCCCN2CCC(C)CC2)c2c3ccccc3n(C)c2c1=O
 : i	-0.42	6.3%
- CC(C(=O)Nc1cccnc1)N1C(=O)c2ccccc2C1=O (centres undefined)
 : i	0.88	7.2%
- COc1ccc(-c2cnnn2-c2ccc(N)cc2)cc1OC
 : i	-0.75	-7.4%
- COc1ccc(S(=O)(=O)NCC(c2cccnc2)N2CCN(C)CC2)cc1C (centres undefined)
 : i	0.13	5.2%
- O=C(NCc1ccco1)Nc1ccccc1Cl
 : i	-0.89	-0.7%
- COc1ccc(NC(C)=O)c2nc(C)c(C)nc12
 : i	1.1	-1.0%
- CC(=O)Oc1ccc2c(c1)cc(C)n2C
 : i	/	-0.5%
- CC(=O)OC[C@H]1O[C@@H](n2ccc(=O)[nH]c2=S)C(OC(C)=O)C1OC(C)=O (some centres undefined)
 : i	-0.09	-3.0%
- CCOc1ccccc1NC(=O)CN(c1cc(C)cc(C)c1)S(=O)(=O)c1c(C)noc1C
 : i	1	3.7%
- O=C(OCCNc1ncc(C(F)(F)F)cc1Cl)c1ccc(S(=O)(=O)N2CCOCC2)cc1
 : i	2.9	2.6%
- O=C(c1ccc(Br)o1)N1CCN(Cc2ccc3c(c2)OCO3)CC1
 : i	1.8	1.9%
- CC(C)CN(Cc1c(O)ccc2c3c(c(=O)oc12)CCC3)CC(C)C
 : i	/	0.8%
- Cc1ccc(S(=O)(=O)N2CCN(C(=O)C3COc4ccccc4O3)CC2)cc1C (centres undefined)
 : i	0.85	-0.7%
- CC(=O)Nc1ccc(S(=O)(=O)Nc2cccc(-c3nc4ccccc4o3)c2)cc1
 : i	/	5.0%
- CS(=O)(=O)N1CCN(c2ccccc2NC(=O)CSc2ccc(Cl)cc2)CC1
 : i	-1.4	-7.4%
- Cc1cccc(NC(=O)c2nc(-c3ccccc3)n(-c3ccccc3)n2)c1C
 : i	/	6.5%
- Nc1nnc(CSCc2ccc(F)cc2)s1
 : i	0.82	7.6%
- Cc1nn2c(NCCCN(C)C)c3c(nc2c1-c1ccccc1)CCC3
 : i	/	3.6%
- O=C(NC(C(=O)N1CCCC1C(=O)O)=C1CCCCC1)c1ccccc1 (centres undefined)
 : i	-0.98	1.8%
- Cc1ccc2[nH]c(=O)c(CNC(C)(C)C)cc2c1
 : i	-0.19	6.9%
- CCOC(=O)C1=C(N)N2C(=O)C(C)SC2=C(C(=O)OCC)C1c1ccccc1 (centres undefined)
 : i	-0.04	-1.5%
- COc1ccccc1N1CCN(C(=O)C2CCN(S(=O)(=O)c3ccccc3)CC2)CC1
 : i	1.2	-8.4%
- O=C(COC(=O)c1cccs1)NCCN1C(=O)CSC1=O
 : i	-0.8	-1.4%
- N#Cc1c2n(c3c(=O)n(Cc4ccc(Cl)cc4)cnc13)CCCCC2
 : i	-1.1	4.9%
- CCc1ccccc1NC1=NCC(=O)N1Cc1ccccc1
 : i	-0.28	3.0%
- Cc1[nH]c(=O)cc2ccccc12
 : i	0.71	-1.9%
- CN1CCC(OC(=O)COc2ccc(C(C)(C)C)cc2)CC1
 : i	0.85	-5.6%
- COc1ccc(C2C3=C(CCCC3=O)Nc3nc(-c4cc(OC)c(OC)c(OC)c4)nn32)cc1OC (centres undefined)
 : i	1.8	-5.4%
- COc1ccc(N(Cc2cc3cccc(C)c3[nH]c2=O)S(C)(=O)=O)cc1
 : i	/	2.8%
- CCC(C(=O)OC)n1cnc2c(nnn2-c2cccc(Cl)c2)c1=O (centres undefined)
 : i	-0.38	9.9%
- COC(=O)c1ccc(CNC(=O)CSc2nc3sc(C)c(C)c3c(=O)n2C)o1
 : i	0.1	11%
- CN(C)c1cccc(C(=O)OCC(=O)NCc2ccco2)c1
 : i	-0.19	-2.6%
- CCCC(=O)Nc1nc2nc(C)cc(=O)n2[nH]1
 : i	/	-0.3%
- Cc1ccc(OCC(=O)Nc2cccc3nsnc23)c(C)c1
 : i	/	2.6%
- Nc1ccc2c(c1)CCC2=O
 : i	-0.86	-25%
- Cc1cccc(C(=O)O)c1NC(=O)c1ccc(F)cc1
 : i	-0.16	-2.5%
- Cc1cnc(NC(=O)C2CCCO2)s1 (centres undefined)
 : i	1.9	-0.3%
- COc1cc(OC)cc(-c2nc3cc(C)ccc3o2)c1
 : i	-0.12	1.0%
- O=C(Nc1ccc(F)cc1)N1CCN(C/C=C/c2ccccc2)CC1
 : i	-0.22	-2.3%
- Cc1cc(C(=O)OCC(=O)N2CCCC2)c2ccccc2n1
 : i	/	4.3%
- COc1ccc(N(CC(=O)Nc2cccc(SC)c2)S(C)(=O)=O)cc1
 : i	1.6	-1.6%
- CCOC(=O)N1CCN(CC(O)COCC2=CCC3CC2C3(C)C)CC1 (centres undefined)
 : i	1.5	-0.5%
- Cc1ccc(C(=O)Nc2ccc(CC(=O)O)cc2)o1
 : i	/	-3.3%
- O=C(CS(=O)(=O)c1cn(Cc2cccc(F)c2)c2ccccc12)N1CCCCC1
 : i	-1.5	1.8%
- CCC(=O)Nc1ccc(S(=O)(=O)N2CCc3ccccc3C2)cc1
 : i	-1.4	2.3%
- COC(CNC(=O)CCc1c(C)nc2c(-c3ccc(F)cc3)c(C)nn2c1C)OC
 : i	/	1.6%
- NC(=O)Cc1c[nH]c2cccc(O)c12
 : i	0.68	3.1%
- Cc1ccc(-n2nc3c([n+]2[O-])CCc2c-3no[n+]2[O-])cc1
 : i	-1.1	-2.0%
- Cc1cccc(N2CCN(C(=O)c3cc4c(=O)[nH]c5ccccc5c4n3C)CC2)c1C
 : i	-0.11	2.8%
- O=C(O)COc1ccc2occ(C(=O)c3ccccc3)c2c1
 : i	-0.21	-2.5%

(cont.)
Values run as follows: MT1-MMP promoter	WNV NS2B-NS3 inh	Hsc70 ATP site
- CC1(C)N=C2C(=[N+]1[O-])CCC/C2=N\O
 : i	1.7	10%
- CCCC(NC(=O)CNC(=O)C(C)(C)C)C(=O)O (centres undefined)
 : i	-0.91	1.6%
- CC(C)=CC(=O)OCC(=O)Nc1ccc(F)cc1Cl
 : i	1.2	-1.3%
- COC(=O)Cc1c(C)nc2nc(-c3ccc(OC)cc3)[nH]n2c1=O
 : i	-0.35	-3.8%
- O=C(Cn1[nH]c(=O)c2ccccc2c1=O)Nc1ccc2c(c1)CCC2
 : i	-0.16	-1.9%
- c1coc(CNc2c3c(nc4ncnn24)CCCC3)c1
 : i	-1.4	3.9%
- COc1ccccc1CNC(=O)C1CCCN1S(=O)(=O)c1cccc2cccnc12 (centres undefined)
 : i	-0.34	-1.8%
- COc1ccc(OC)c(N2Cc3ccccc3C2)c1
 : i	/	1.3%
- CCCNS(=O)(=O)c1ccc(CCC(=O)N2CCC(C)CC2)cc1
 : i	0.31	2.3%
- O=C1C2CC=C(Cl)CC2C(=O)N1CCc1ccccc1 (centres undefined)
 : i	-0.28	19%
- Cc1ccc2c(c1)N(CC(=O)N1CCc3ccccc3C1)C(=O)CO2
 : i	1.1	1.2%
- O=C(NCc1ccccc1F)C1CCCN1C(=O)NC1CCCCC1 (centres undefined)
 : i	/	2.7%
- COCCn1c(C)cc(C(=O)CSc2nnc3ccccn23)c1C
 : 3.6µM*	0.17	0.5%
- CCn1nccc1C(=O)Nc1ccc(Cl)c(Cl)c1
 : i	/	-2.5%
- CCOC(=O)c1c(CN2CCN(C)CC2)n(C)c2cc(Br)c(OC)cc12
 : i	-0.12	0.6%
- Cn1cc(CN2CCN(c3ccccc3)CC2)c2ccccc21
 : i	-0.15	-0.2%
- CCc1ccccc1NC(=O)c1cnc2n(c1=O)CCS2
 : i	0.1	3.5%
- CCC(C)(C)n1nnnc1C(c1ccccc1)N1CCN(C2CCCC2)CC1 (centres undefined)
 : i	/	-7.3%
- COc1cc(C=O)ccc1Oc1nnnn1-c1ccc(C(N)=O)cc1
 : i	/	-0.9%
- CCC(=O)c1ccc(OCC(O)CN2CCN(C(c3ccccc3)c3ccccc3)CC2)cc1 (centres undefined)
 : i	/	-1.2%

Results in MT1-MMP promoter and WNV NS2B-NS3 inh, for four of the compounds above:
canonical_smiles | MT1-MMP promoter | WNV NS2B-NS3 inh
COCCn1c(C)cc(C(=O)CSc2nnc3ccccn23)c1C | 3.6µM* | 0.17
CCn1nccc1C(=O)Nc1ccc(Cl)c(Cl)c1 | i | /
CCOC(=O)c1c(CN2CCN(C)CC2)n(C)c2cc(Br)c(OC)cc12 | i | -0.12
Cn1cc(CN2CCN(c3ccccc3)CC2)c2ccccc21 | i | -0.15

Next part.
Values run as follows: MT1-MMP promoter	WNV NS2B-NS3 inh	Hsc70 ATP site
- O=C(Nc1cccc2cccnc12)c1cccc2ccccc12
 : i	/	-3.2%
- O=C(O)CCC(=O)N(Cc1cccnc1)Cc1cccc(F)c1
 : i	1.2	-2.3%
- CCc1cc(Br)ccc1N1C(=O)C2CC=CCC2C1=O (centres undefined)
 : i	1.1	-1.7%
- Cc1oc2nc(SCCCC(=O)NCCCO)nc(N)c2c1C
 : i	0.01	-6.0%
- Cn1cccc1/C=C1\CC(C(C)(C)C)C/C(=C\c2cccn2C)C1=O (centres undefined)
 : i	/	-109%
- CCOC(=O)c1c(-c2cccs2)csc1NC(=O)CN1CC(C)OC(C)C1 (centres undefined)
 : i	-0.64	1.9%
- COc1cc(OC)cc(-c2nc3nc(C)c(CCC(=O)O)c(C)n3n2)c1
 : i	0.37	-7.4%
- Clc1cccc(N=C2NN=C(c3ccc4c(c3)OCCO4)CS2)c1
 : i	/	2.6%
- COc1cc(C(=O)Nc2ccc(O)cc2C(=O)O)ccc1OC(C)=O
 : i	1.1	-6.7%
- CCCCN(C)CCCNC(=O)CS(=O)Cc1nc(-c2ccc(OC)c(OC)c2)oc1C (centres undefined)
 : i	0.1	-4.6%
- C/C=C/c1ccc(OCCSc2nc(C)cc(=O)[nH]2)c(OC)c1
 : i	-1.2	1.0%
- Cc1ccc(C)c(N2CCN(C(=O)CNS(=O)(=O)c3cccs3)CC2)c1
 : i	/	-1.2%
- CN(C)c1ccc(CNn2cnnc2SCc2ccc(F)cc2)cc1
 : i	-1.2	-0.4%
- Cc1[nH]c2ccc(C(=O)OCCN(C)C)cc2c1C
 : i	2.1	6.2%
- N=c1sccn1CC(=O)NCCc1ccc(Cl)cc1
 : i	-0.61	-4.0%
- COc1ccc(C2C(C#N)=C(N)Oc3cc(C)n(Cc4ccncc4)c(=O)c32)cc1 (centres undefined)
 : i	0.79	0.3%
- CCOc1ccc(NC(=O)N2CCC(C(=O)c3ccc(F)cc3)CC2)cc1
 : i	/	-2.1%
- COC(=O)c1cc(NC2c3ncccc3C(=O)N2Cc2ccccc2)cc(C(=O)OC)c1 (centres undefined)
 : i	0.23	-4.0%
- O=Cc1cn(CC(=O)N2CCOCC2)c2ccccc12
 : i	/	-4.1%
- Cc1ccc(NC(=O)COC(=O)c2ccc3c(c2)NC(=O)C2CCCN32)cc1C (centres undefined)
 : i	-1.1	-29%
- O=C(Nc1cccc(O)c1)c1noc2c1CCCCC2
 : 0.23µM*	/	-0.3%
- CC1CCN(S(=O)(=O)c2cccc(C(=O)N(C)C3CCS(=O)(=O)C3)c2)CC1 (centres undefined)
 : i	-1.7	-1.4%
- O=C(NCCc1ccccc1)C(c1cccs1)N(C(=O)c1csnn1)C1CC1 (centres undefined)
 : i	-0.59	0.5%
- CSc1nc2c(c(=O)n1-c1ccc(F)cc1)SCC2
 : i	/	1.6%
- CC(=O)N(C(C)=O)c1ncc2c([nH]c3ccccc32)c1C#N
 : i	-0.02	-1.8%
- Cc1ccccc1-c1nnc(-c2ccccc2)o1
 : i	-0.71	1.4%
- CCC1Oc2ccccc2N(CC(=O)NCCCN2CCCCC2CC)C1=O (centres undefined)
 : i	0.3	1.1%
- CCCCC(O)(CCN1CCOCC1)c1ccc(Cl)cc1 (centres undefined)
 : i	/	-2.4%
- COc1ccc(-n2c(=S)[nH]c3cc(C(=O)NCCCN4CCCC4=O)ccc3c2=O)cc1OC
 : i	/	4.9%
- CCOC(=O)c1[nH]nc(N)c1NC(=O)c1ccc(Cl)cc1Cl
 : i	0.34	-2.7%
- O=C(COC(=O)c1cc(S(=O)(=O)N2CCCCC2)ccc1N1CCOCC1)NC1CCCCC1
 : i	0.71	-2.3%
- COC(=O)c1[nH]c2ccc(C)cc2c1NC(=O)CN1CCN(Cc2ccccc2)CC1
 : i	-0.24	-12%
- CCCOc1nc2c(c(=O)n(C)c(=O)n2C)n1CC
 : i	1.6	-2.1%
- Cn1c(=O)[nH]c(=O)c2c1nc(N1CCc3ccccc3C1)n2CCSc1nc2ccccc2s1
 : i	-0.48	5.4%
- OCCOCCOCCn1c2ccccc2c2ccccc21
 : i	-0.37	4.3%
- CCOC(=O)c1c(N)sc(C(=O)N2CCCCCC2)c1C
 : i	2.3	11%
- CCC1(O)c2ccccc2-c2ncccc21 (centres undefined)
 : i	/	4.1%
- COCCn1c(C)cc(C2=NNC(=Nc3ccc(Cl)cc3Cl)SC2)c1C
 : i	/	-0.8%
- COCCCNC(=O)CCSc1ccc(Cl)cc1
 : i	0.53	0.2%
- Cc1cc(C)nc(NC(=O)CCC2CCCC2)c1
 : i	/	3.6%
- CCCCn1cnc2c1c(=O)n(CC(=O)c1cc(C)n(C)c1C)c(=O)n2CC(C)C
 : i	-0.44	2.8%
